HCMV NEC inh: disrupts HCMV UL50-UL53 complex binding; inhibition, % (concentration not given with the values); HTRF UL50-UL53 interaction, normalized percent inhibition; 190,000 compounds, 0.15% hits; AID 1918969;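 active means both replicates at 50% or more, plus weaker picks with an unusually low signal ratio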;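 further: stock transfer was 100 nL into about 20 µL; 0% = negative control wells and 100% = wells with untagged competitor protein; inactives centre near -12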
GIV-Gai inh: blocks GIV peptide binding to rat Galpha-i3; P08753; Galpha-i3/FITC-GIV peptide fluorescence polarization, 90 min; stronger effect = lower value; scaled: aluminum fluoride 0%, vehicle 100%; percent of control (FP), % (test concentration not listed); 210,000 compounds, 0.42% hits;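 active means replicate mean at 85% of control or lower, very high polarization wells dropped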;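 further: wells of about 15 µL received 100 nL stock; the first replicate is given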
Target sequence (P08753 whole entry, looked up): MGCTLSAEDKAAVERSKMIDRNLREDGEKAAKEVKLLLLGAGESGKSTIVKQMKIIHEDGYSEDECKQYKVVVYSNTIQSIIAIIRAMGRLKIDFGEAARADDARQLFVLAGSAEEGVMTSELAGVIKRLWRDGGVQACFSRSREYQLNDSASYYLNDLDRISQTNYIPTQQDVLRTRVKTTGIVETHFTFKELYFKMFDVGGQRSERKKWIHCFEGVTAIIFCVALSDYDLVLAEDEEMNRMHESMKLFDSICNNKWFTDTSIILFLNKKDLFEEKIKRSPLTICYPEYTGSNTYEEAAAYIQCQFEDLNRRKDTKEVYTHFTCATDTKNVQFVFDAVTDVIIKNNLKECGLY
Sa growth inh: inhibitors of Staphylococcus aureus growth at 42 °C. 170,000 compounds, 0.53% hits. relative growth, % (concentration not given with the values). AID 720641. S. aureus RN4220 growth, OD600, 20 h; stronger effect = lower value;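 active means growth at 42 °C up to 50% and 20 or more points under that at 30 °C, or under 10% at both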;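 further: 300 nL library stock went into each well; scaled to the means of positive and negative controls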
Sa growth inh second temp: recorded beside Sa growth inh, whose call it bears; relative growth, %; measured here: growth at 30 °C;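 optical density after 20 h as mean of two plates; 100% = untreated growth and lower means inhibition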
* marks the source's active call; other numbers are inactive results; nt = no result given; & = joins results of further samples.

SMILES	HCMV NEC inh	GIV-Gai inh	Sa growth inh	Sa growth inh second temp
O=C(CSCc1ccco1)Nc1ccc(Br)cc1	-24	104	98	88
CC(=O)Nc1ccc(S(=O)(=O)Nc2cc(C)c(-n3nc4ccccc4n3)cc2O)cc1	19	108	106	98
COc1ccccc1NC(=O)C(CC(C)C)NC(=O)C1CCCCC1 (configuration not stated)	-25	96	80	80
Cc1ccc(NC(=O)CC(=O)Nc2ccc(C)cc2C)c(C)c1	10	104	nt	nt
CC1CN(C(=O)COc2ccc3ccccc3c2)c2ccccc2NC1=O (configuration not stated)	-11	97	nt	nt
CC1CCCC(NC(=O)c2ccc3c(=O)n4c(nc3c2)CCCCC4)C1C (configuration not stated)	9	104	86	86
O=C(NCCc1ccccc1)c1c(O)nc2ccccn2c1=O	-30	98	61	57
Cc1cccc(C)c1NC(=O)CCCSc1nnnn1C	-40	nt	92	97
CN1C(=O)/C(=C2/C=CC=CN2C)SC1=S	-98	103	83	99
Cc1cccc2c1[nH]c1nc(=S)[nH]nc12	-78	100	49	25
COc1ccc(NC(=O)Cn2c(=O)n(Cc3ccccc3)c(=O)c3sc4ccccc4c32)cc1	-13	98	115	89
Nc1nnc(Cc2ccccc2)s1	-5	nt	87	86
COc1ccc(OC)c(CCNC(=O)Cn2ccc3cc(S(=O)(=O)N4CCCCC4)ccc32)c1	nt	107	133	82
COc1cc(OC)c(NC(=O)CN2C(=O)CSc3ncccc32)cc1Cl	1	101	84	78
Cc1cc(N)n2c(nc3ccccc32)c1C#N	-3	nt	91	91

Record cards, from the list above. Screens in order: HCMV NEC inh	GIV-Gai inh	Sa growth inh	Sa growth inh second temp
Shown for Nc1nnc(Cc2ccccc2)s1 → -5	nt	87	86
Shown for O=C(CSCc1ccco1)Nc1ccc(Br)cc1 → -24	104	98	88

Other results
SMILES	HCMV NEC inh	GIV-Gai inh	Sa growth inh	Sa growth inh second temp
Nc1c(C(=O)c2cccs2)oc2nc(-c3cccs3)cc(-c3ccco3)c12	-31	-54*	89	57
CC1=C(C(=O)OC(C)C)C(c2sccc2C)c2c(nc(SCC(C)C)[nH]c2=O)N1 (configuration not stated)	-29	98	nt	nt
CC(C)(C)c1ccc(Oc2c(C(F)(F)F)oc3c(CN4CCOCC4)c(O)ccc3c2=O)cc1	5	105	nt	nt
COCCCNC(=O)c1ccc(Cn2c(=O)c3ccccc3n(CC(N)=O)c2=O)cc1	-2	103	99	92
NC(=O)c1cnn2c(-c3cccc(C(F)(F)F)c3)ccnc12	0	104	92	101
COc1ccc(S(=O)(=O)n2nc(C)c(S(=O)(=O)N3CCCCCC3)c2C)cc1OC	nt	112	93	97
CCN(C(=O)Cn1cnc(S(=O)(=O)N2CCOCC2)c1)c1cccc(C)c1	-13	103	97	90
CN(C)c1ccc(Nc2nc3ccccc3nc2NS(=O)(=O)c2cccs2)cc1	-33	nt	105	96
COc1ccc(CNCc2c(C(=O)O)c(C)n(-c3ccccc3)c2C)cc1	-32	113	nt	nt
COc1ccc(C2CC(=O)C(C=NC3CCCC3)=C(O)C2)cc1 (configuration not stated)	-45	102	77	96
Fc1ccc(-c2cn3cccc(OCc4ccc(Cl)c(Cl)c4)c3n2)cc1	-9	106	108	81
CCN(CC)S(=O)(=O)c1ccc(N2C(=O)Nc3ccccc3N2O)cc1	-9	102	112	92
O=C1CC(c2cccc3ccccc23)C2=C(CCCC2=O)N1 (configuration not stated)	-8	105	109	72
c1ccc(-c2nsc(NC3Cc4ccccc4C3)n2)cc1	-3	99	66	87
CCN(C(=O)c1cc2c(s1)-c1ccccc1OC2)c1cccc(C(F)(F)F)c1	-15	104	103	95
Cc1cc(C)nc(N2CCC(C(O)(c3ccccc3)c3ccccc3)CC2)n1	-12	103	100	97
COc1cc(/C=C2\C(=O)N(c3ccc(S(N)(=O)=O)cc3)N=C2C)cc(Cl)c1OCc1ccccc1	61*	96	nt	nt
Cc1ccc(C(=O)OCc2ccc(C#N)cc2)c(O)c1	15	nt	114	96
COc1ccc(S(=O)(=O)c2c(Nc3c(C)cccc3C)sc(C(=O)c3ccc(F)cc3)c2N)cc1	nt	108	124	109
Cc1c(N=CC(O)CN2CC3CC(C2)c2cccc(=O)n2C3)c(=O)n(-c2ccccc2)n1C (configuration not stated)	-34	nt	51	50
CC(NC(=O)c1cc(=O)[nH]c2ccc(S(=O)(=O)N3CCOCC3)cc12)C12CC3CC(CC(C3)C1)C2 (configuration not stated)	-31	nt	68	96
Cc1nc(CC(=O)Nc2ccccc2C)cs1	-18	116	nt	nt
COCCN1C(=O)c2ccccc2C(C(=O)N2CCN(c3ccccc3)CC2)C1c1c[nH]c2ccccc12 (configuration not stated)	-32	102	91	81
CCCN1C(=O)C(NC(C)=O)c2cc(C)ccc21 (configuration not stated)	-2	97	84	85
Brc1ccc2nc(CSc3nnc4ccccn34)cn2c1	11	nt	109	97
O=C(NCCC1=CCCCC1)Nc1noc2c1COc1ccccc1-2	-29	101	75	88
O=C(c1cn(CCOc2ccccc2)c2ccccc12)C1CC1	-9	nt	79	77
COc1ccc(NC(=O)CN2C(=O)/C(=C/c3cc(OC)c(OC)c(OC)c3)SC2=S)cc1	-8	114	nt	nt
CCOC(=O)C(CC)n1cnc2c(nnn2-c2cccc(Cl)c2)c1=O (configuration not stated)	1	102	89	92
CCc1cn[nH]c1-c1c(F)cccc1F	-15	104	103	92

Entries listed so far that contain a furan ring, fused or not, in the order listed:
SMILES	HCMV NEC inh	GIV-Gai inh	Sa growth inh	Sa growth inh second temp
O=C(CSCc1ccco1)Nc1ccc(Br)cc1	-24	104	98	88
Nc1c(C(=O)c2cccs2)oc2nc(-c3cccs3)cc(-c3ccco3)c12	-31	-54*	89	57

Other records:
SMILES	HCMV NEC inh	GIV-Gai inh	Sa growth inh	Sa growth inh second temp
CC(C)Cc1ccc(C2=CC(c3ccc(C#N)cc3)C(C(N)=O)C(=O)N2)cc1 (configuration not stated)	-7	100	110	78
Cc1noc(C)c1NC(=O)NC1Cc2ccccc2C1	-24	111	99	77
CCOc1ccccc1CNC(=O)c1ccc(-c2nc(CSc3ccc(C)cc3)c(C)o2)cc1	nt	99	115	91
O=C(CCn1ccc2cc(S(=O)(=O)N3CCCCC3)ccc21)N1CCc2ccccc2C1	-24	103	119	98
Cc1onc(-c2ccccc2Cl)c1C(=O)Nc1cccc(-n2cnnn2)c1	-21	101	nt	nt
COc1ccc2cc(-c3nc(Cl)c4c5c(sc4n3)CCCC5)c(=O)oc2c1	-15	139	97	87
COc1ccc(N=Cc2cn(-c3ccccc3)nc2-c2ccccc2)cc1	nt	102	82	81
N#Cc1cnn(-c2ncnc3sc4c(c23)CCCC4)c1N	34	95	100	79
CN(Cc1ccccc1)S(=O)(=O)c1ccc(-c2nc(C#N)c(N3CCOCC3)o2)cc1	-25	98	nt	nt
CCOc1ccc(-n2nc3cc(C)c(NC(=O)c4ccc(Br)cc4)cc3n2)cc1	-12	102	nt	nt
COc1ccc(CCNC(=O)Cn2cc(S(=O)(=O)Cc3cccc(Cl)c3)c3ccccc32)cc1OC	nt	108	99	70
CC(C)NC(=O)Cc1ccc(-n2c(=O)c3ccccc3n(CC(=O)NC3CCCCC3)c2=O)cc1	-9	102	nt	nt
O=C(Nc1ccc(OC(F)(F)F)cc1)C1CCN(S(=O)(=O)c2cccs2)CC1	14	106	103	85
CCOC(=O)COc1nc(-c2ccccc2)cc(C(F)(F)F)c1C#N	0	109	111	94
CCCn1c(=O)n(C)c(=O)c2c3oc(=O)c(NC(=O)c4ccccc4)cc3[nH]c21	-30	nt	91	91
Cc1cc(C)cc(OCC(=O)Nc2ccc(S(=O)(=O)Nc3onc(C)c3C)cc2)c1	-3	97	74	87
Cc1ccc(N2CC(C(=O)Nc3nnc(SCC(=O)NCc4ccco4)s3)CC2=O)cc1C (configuration not stated)	-38	114	92	69
O=c1c2ccccc2n2c(=S)[nH]nc2n1Cc1ccccc1	0&21	104	64	95
Cc1ccc(C(=O)OCc2ccccc2)cc1NC(=O)c1ccco1	-22	103	105	90
Cc1c(Cl)cccc1-c1ccc(C(=O)Nc2ccccn2)o1	-11	104	85	62
COc1ccc(OC)c(NC(=O)c2c(C)oc3ncnc(N4CCOCC4)c23)c1	nt	110	111	108
O=C(Cn1cnc2ccccc2c1=O)NCCC(=O)N1CCN(Cc2ccccc2)CC1	-6	106	88	91
Cc1cc(C)cc(Nc2cc(C(=O)NCCCN(Cc3ccccc3)C(C)C)c3ccccc3n2)c1	nt	109	109	93
CN(C)CCSc1nc2ccccc2n1CCc1ccccc1	-8	96	97	88
Cc1ccnc2nc(C(=O)Nc3ccccc3C(C)(C)C)nn12	-28	nt	100	94
Brc1ccc2c(c1)CNc1cccnc1O2	-10	111	104	94
O=C(Oc1cccc2[nH]ccc12)c1ccc(C(F)(F)F)cc1	-10	107	77	73
COc1ccccc1NC(=O)NCCc1c(C)nn(C)c1C	-16	105	nt	nt
CCn1c(C)nc2cc(S(=O)(=O)N(C)C)ccc21	5	99	97	99
Cc1ccc(-c2nc3cccnc3n2CCNS(=O)(=O)c2ccc(C(C)C)cc2)cc1	-12	130	nt	nt

Individual results from above:
Value for Brc1ccc2c(c1)CNc1cccnc1O2 in HCMV NEC inh: -10
Value for CCn1c(C)nc2cc(S(=O)(=O)N(C)C)ccc21 in HCMV NEC inh: 5

Additional results
SMILES	HCMV NEC inh	GIV-Gai inh	Sa growth inh	Sa growth inh second temp
CC(C)c1ccc(OCC(=O)N2CCCc3ccccc32)cc1	-19	101	92	90
O=C1CCc2cc(OCc3ccc(Cl)cc3)ccc2O1	nt	98	101	89
O=C(Cn1c(=O)n(Cc2ccc(C(=O)NCc3ccc4c(c3)OCO4)cc2)c(=O)c2ccccc21)Nc1cccc(Cl)c1	-3	107	122	88
COc1ccc(N(Cc2cccs2)C(=O)c2ccc(C(C)(C)C)cc2)cc1	-26	101	93	80
CCc1ccc(CNc2nc3nc(CNc4ccc(Br)cc4)cc(=O)n3[nH]2)cc1	-6	103	nt	nt
CN1C(=O)COc2ccc(C(=O)O)cc21	11	106	nt	nt
CCCN1CCN(c2ncnc3sc(C(=O)Nc4ccc(OC(F)(F)F)cc4)c(C)c23)CC1	nt	105	127	93
Cc1cc(C)cc(NC(=O)C2CCN(S(=O)(=O)c3cccc4nonc34)CC2)c1	nt	106	153	93
Nn1c(Cc2ccccc2)n[nH]c1=S	-20	101	65	65
Cc1ccc2nc(COC(=O)Cn3[nH]c(=O)c4ccccc4c3=O)cc(=O)n2c1	-21	nt	79	91
CCOC(=O)c1oc2ccccc2c1NC(=O)COC(=O)C12CCC(=O)N1c1ccccc1S2 (configuration not stated)	0	nt	102	85
CC(O)(CC#N)c1ccccc1 (configuration not stated)	6	109	108	108
O=C(NCc1ccco1)c1ccc2c(=O)n(C3CCCCC3)c(SCc3cccc(F)c3)nc2c1	nt	100	107	89
Cc1cc(=O)[nH]c(SCc2cn3c(C)cc(C)nc3n2)n1	nt	113	103	96
CC(C)=N/N=C(\N)SCc1ccccc1	-30	nt	86	62
Cc1nc(Nc2ccc3c(c2)OCO3)c2c(C)noc2n1	-29	100	nt	nt
NC(=S)/N=C1\CCCCC1=C1CCCCC1	nt	98	91	85
C/C(=N\O)C1/C(=N/O)CC2C1C2(C)C (configuration not stated)	-2	103	101	95
CCC1S/C(=N\C(=O)Nc2ccc(Cl)c(Cl)c2)NC1=O (configuration not stated)	-2	106	124	87
COc1cc2nc(NC(=O)c3ccc(S(=O)(=O)N4CCOCC4)cc3)sc2cc1OC	nt	97	76	83
Oc1ccc(-c2[nH]ncc2-c2cnn(-c3ccccc3)c2)c(O)c1	-21	nt	119	41
Cn1nc(NC(=O)CC(C)(C)CC(=O)O)c2c(F)cccc21	-31	100	91	90
CCc1cccc(NC(=S)N(CCOC)C(C)c2cccs2)c1 (configuration not stated)	nt	98	99	93
CCOC(=O)N1CCN(S(=O)(=O)c2ccc(C(=O)Nc3nc(-c4cc5ccccc5oc4=O)cs3)cc2)CC1	-1	106	nt	nt
CN1CCCN(Cc2cc(Br)cs2)CC1	9	102	108	106
CC(C)(O)/C(=C\C#N)n1c(=O)oc2ccccc21	-9	101	96	84
CC(C)C(NC(=O)Cn1c(=O)oc2ccccc21)c1nc2ccccc2[nH]1 (configuration not stated)	-5	nt	127	84
COc1cccc(C(=O)COc2cccc(NC(=O)c3ccco3)c2)c1	-3	105	83	44
O=C1CC(=O)N2N=C(c3ccccc3)SC2=N1	1	121	101	82
O=C1C(=C2SCCS2)CC/C1=C\c1ccccc1	-56	nt	101	91
Cc1nn(-c2ccccc2)c(-n2cccc2)c1C(=O)NCCCN1CCN(c2ccccc2F)CC1	-10	102	95	89
CC(C)(C)NC(=O)NCC1COC2(CCCCC2)O1 (configuration not stated)	-3	106	107	98

Another view of some results above:
Every second line gives: HCMV NEC inh | GIV-Gai inh | Sa growth inh | Sa growth inh second temp
> Cc1c(N=CC(O)CN2CC3CC(C2)c2cccc(=O)n2C3)c(=O)n(-c2ccccc2)n1C (configuration not stated)
→ -34 | nt | 51 | 50
> CC(NC(=O)c1cc(=O)[nH]c2ccc(S(=O)(=O)N3CCOCC3)cc12)C12CC3CC(CC(C3)C1)C2 (configuration not stated)
→ -31 | nt | 68 | 96
> Cc1nc(CC(=O)Nc2ccccc2C)cs1
→ -18 | 116 | nt | nt
> COCCN1C(=O)c2ccccc2C(C(=O)N2CCN(c3ccccc3)CC2)C1c1c[nH]c2ccccc12 (configuration not stated)
→ -32 | 102 | 91 | 81
> CCCN1C(=O)C(NC(C)=O)c2cc(C)ccc21 (configuration not stated)
→ -2 | 97 | 84 | 85

Screening data deposited in PubChem by ICCB-Longwood Screening Facility, Harvard Medical School.

No enrichment for hits; about 0.82% have a hit in one of these screens.
